Assay outcomes (PubChem)
LANA-H2A inh: blocks KSHV LANA binding to histone H2A/H2B; Q9QR71; cell-free LANA-H2A/H2B peptide, fluorescence polarization; inhibition, % (test concentration not listed); 0.6% of 320,000 active; AID 2629; in the data active = inhibition mostly above about 10%, no sharp cut-off; inactive = mostly below about 6.7%;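 also: stock transfer was 7.5 nL into about 10 µL; 0% = median of vehicle wells and 100% = median of positive control wells; one replicate is shown; the record names a cut of 25% in any replicate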
Target sequence (Q9QR71 whole entry, looked up): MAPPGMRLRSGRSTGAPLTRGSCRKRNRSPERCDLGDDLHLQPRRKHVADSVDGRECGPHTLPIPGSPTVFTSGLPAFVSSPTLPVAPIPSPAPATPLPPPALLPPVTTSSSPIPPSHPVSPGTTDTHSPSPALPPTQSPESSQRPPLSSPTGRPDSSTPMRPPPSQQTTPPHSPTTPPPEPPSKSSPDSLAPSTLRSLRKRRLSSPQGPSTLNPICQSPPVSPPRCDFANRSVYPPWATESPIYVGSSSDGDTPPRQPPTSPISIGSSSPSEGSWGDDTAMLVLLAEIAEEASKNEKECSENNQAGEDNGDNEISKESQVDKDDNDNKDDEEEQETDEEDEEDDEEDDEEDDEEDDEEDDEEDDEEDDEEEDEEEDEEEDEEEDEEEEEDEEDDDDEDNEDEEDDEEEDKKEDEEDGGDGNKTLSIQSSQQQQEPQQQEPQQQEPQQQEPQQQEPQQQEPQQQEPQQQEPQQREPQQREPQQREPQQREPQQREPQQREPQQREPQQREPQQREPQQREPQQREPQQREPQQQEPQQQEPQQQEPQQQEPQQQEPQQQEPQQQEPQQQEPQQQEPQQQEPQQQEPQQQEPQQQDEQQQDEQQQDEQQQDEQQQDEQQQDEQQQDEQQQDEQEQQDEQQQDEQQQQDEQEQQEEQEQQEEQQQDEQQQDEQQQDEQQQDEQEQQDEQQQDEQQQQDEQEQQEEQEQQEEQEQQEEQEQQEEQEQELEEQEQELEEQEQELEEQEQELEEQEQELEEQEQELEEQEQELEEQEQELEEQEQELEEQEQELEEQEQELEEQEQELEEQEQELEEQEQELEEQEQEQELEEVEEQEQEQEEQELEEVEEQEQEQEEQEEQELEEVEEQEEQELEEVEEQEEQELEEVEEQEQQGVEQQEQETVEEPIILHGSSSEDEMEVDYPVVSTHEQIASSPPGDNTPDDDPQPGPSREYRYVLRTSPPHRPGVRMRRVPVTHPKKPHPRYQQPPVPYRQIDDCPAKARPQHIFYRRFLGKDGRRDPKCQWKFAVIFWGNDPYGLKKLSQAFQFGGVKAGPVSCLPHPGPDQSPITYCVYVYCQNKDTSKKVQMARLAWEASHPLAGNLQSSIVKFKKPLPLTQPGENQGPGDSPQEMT
E coli growth: blocks Escherichia coli growth. OD600, 23 h; active compounds read low. OD600 absorbance (no concentration beside the values). 0.21% of 330,000 active. AID 1053175;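 active = OD600 absorbance below the run mean of sample wells minus 3.6 SD, in any replicate, cut at about 0.56 in these data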;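 also: stock transfer was 300 nL into about 60 µL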
FGF22 binding: binders of recombinant human FGF22 by thermal shift | Q9HCT0 | AID 651658 | SYPRO orange fluorescence; percent of sucrose octasulfate shift, DMSO zero | calls only at 9.99 µM | 1.5% of 340,000 active;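 active = melting point raised past a set limit in the mean and every replicate; three in four hits are not shown here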
ALR inh: blocks human ALR sulfhydryl oxidase activity; 3.8% of 290,000 active; purified ALR, DTT oxidation, H2O2 HRP-luminol luminescence; P55789; AID 485317; inhibition, % (test concentration not listed);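 active = mean and each replicate at 75% or more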;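 also: stock transfer was 7.5 nL into about 7.5 µL; 0% = neutral wells and 100% = wells with inactivated enzyme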
HNF4A DNA FP: change in binding of human HNF4 alpha to DNA. 0.3% of 360,000 active. HNF4a-FITC DNA binding, fluorescence polarization, 1 h. activity change, % at 10 µM. P41235; in the data active = activity change above about 30%, passing the limit was not always enough;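 also: controls were the assay level and a saturating level of protein; the project sought stronger binding though the title names inhibitors; some compounds called inactive have numbers as strong as hits; positive values seem to mean higher polarization but the record does not say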
Beta2AR agonist: agonists of human beta-2 adrenergic receptor inducing internalization | P07550 | Am2.2-beta2AR cells, FAP receptor internalization, flow cytometry; reference of the scale not given here | response, % (test concentration not listed) | 0.43% of 340,000 active;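 active = response above a set limit, near 3 SD of response in nonfluorescent compounds, cut at about 42% in these data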;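 also: stock transfer was 100 nL into about 11 µL; a reference agonist was the positive control; negative values mostly stem from fluorescent compounds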
UCH37 DUB inh: inhibitors of human deubiquitinating enzyme UCH37; purified proteasome/UCH37, Ub-AMC cleavage fluorescence; inhibition, % (concentration not given with the values); 0.33% of 330,000 active;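 active = mean of two replicates above 20%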;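 also: 0% = compound-free wells with enzyme and 100% = wells lacking proteasome; stock transfer was 100 nL into about 20 µL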
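assay system = human UCH37 enzyme supplied as purified proteasome complex | amount = proteasome at 0.15 nM in the dispensed enzyme solution | schedule = 30 min compound-proteasome preincubation then 25 min substrate reaction, room temperature | measured by = fluorescence, ex 355 nm, em 460 nm | benchmarks = no-proteasome wells (full inhibition) and compound-free wells (no inhibition)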
Numbers without * were called inactive. These rows are one share of the data; rates above refer to the full screens.

Results for Cc1nc2ccccc2nc(C)c1=NOCc1cccc(F)c1 ?
LANA-H2A inh: -3.6; E coli growth: 0.71; FGF22 binding: inactive; ALR inh: -18; HNF4A DNA FP: -0.8; Beta2AR agonist: 0; UCH37 DUB inh: 3.1

How did C=CCn1c(SCc2ccc3nonc3c2)nnc1-c1cccs1 do in these assays?
LANA-H2A inh: 6.8; E coli growth: 0.7; ALR inh: -2; HNF4A DNA FP: 5.2; Beta2AR agonist: -7; UCH37 DUB inh: 2.2

What do the screens show for `CCN(CC)CCNC(=O)c1nn(-c2ccc(C)cc2)c(=O)c2c1c1ccccc1n2C`?
LANA-H2A inh: 0.8; E coli growth: 0.67; ALR inh: -4; HNF4A DNA FP: 3.5; Beta2AR agonist: 13; UCH37 DUB inh: -24

What do the screens show for `C=CCCC(=O)N1CCC(CCC(=O)NC2CC2)CC1`?
LANA-H2A inh: -1.9; E coli growth: 0.69; FGF22 binding: inactive; ALR inh: 6; HNF4A DNA FP: -2.4; Beta2AR agonist: -2; UCH37 DUB inh: 5.1

Results for COc1cccc(CN(CC(=O)NC2CCCCC2)C(=O)c2csnn2)c1 ?
LANA-H2A inh: 4.9; E coli growth: 0.63; FGF22 binding: inactive; ALR inh: 6; HNF4A DNA FP: 9.3; Beta2AR agonist: 7; UCH37 DUB inh: 1.1

Results for O=C(c1ccco1)N1CCN(C(=O)C2CCCN(S(=O)(=O)c3cccc4nsnc34)C2)CC1 (stereo unspecified) ?
LANA-H2A inh: 0.7; E coli growth: 0.7; ALR inh: -1; HNF4A DNA FP: -1.4; Beta2AR agonist: 0; UCH37 DUB inh: 6.1

What do the screens show for `CCOC(=O)N1CCC(NC(=O)CC2C(=O)NCCN2Cc2ccccc2)CC1` (stereo unspecified)?
LANA-H2A inh: -3.6; E coli growth: 0.68; FGF22 binding: inactive; ALR inh: -20; HNF4A DNA FP: 1.3; Beta2AR agonist: -4; UCH37 DUB inh: -0.3

Results for Cc1cc(Br)c(OCc2ccc(C(=O)N/N=C3\CC4CC=CC34)cc2)c(Br)c1 (stereo unspecified) ?
LANA-H2A inh: -7.5; ALR inh: -7; HNF4A DNA FP: 1.8; Beta2AR agonist: 2

What do the screens show for `NC(=O)COC(=O)c1ccccc1Oc1ccccc1`?
LANA-H2A inh: -4.6; E coli growth: 0.65; FGF22 binding: inactive; ALR inh: 1; HNF4A DNA FP: 2.9; Beta2AR agonist: 1; UCH37 DUB inh: -3.5

What do the screens show for `CCC(CC)N=C1NS(=O)(=O)c2cc([N+](=O)[O-])ccc21`?
LANA-H2A inh: 1.9; E coli growth: 0.69; FGF22 binding: inactive; ALR inh: -53; HNF4A DNA FP: 3.4; Beta2AR agonist: 5; UCH37 DUB inh: 2.3

The list goes on (two carried over from the part before).
What do the screens show for `NC(=O)COC(=O)c1ccccc1Oc1ccccc1`?
LANA-H2A inh: -4.6; E coli growth: 0.65; FGF22 binding: inactive; ALR inh: 1; HNF4A DNA FP: 2.9; Beta2AR agonist: 1; UCH37 DUB inh: -3.5

What do the screens show for `CCC(CC)N=C1NS(=O)(=O)c2cc([N+](=O)[O-])ccc21`?
LANA-H2A inh: 1.9; E coli growth: 0.69; FGF22 binding: inactive; ALR inh: -53; HNF4A DNA FP: 3.4; Beta2AR agonist: 5; UCH37 DUB inh: 2.3

How did COc1cc(C)c(Cl)cc1S(=O)(=O)NCCCN1CCOCC1 do in these assays?
LANA-H2A inh: -0.3; E coli growth: 0.69; ALR inh: -3; HNF4A DNA FP: -0.5; Beta2AR agonist: -6; UCH37 DUB inh: 4.3

How did CN(CCC#N)c1ccc(/C=C(\C#N)c2ccccn2)cc1 do in these assays?
LANA-H2A inh: 1.5; E coli growth: 0.66; FGF22 binding: inactive; ALR inh: -17; HNF4A DNA FP: 1.1; Beta2AR agonist: -10; UCH37 DUB inh: 5.6

Results for Cc1ccsc1C1C(C#N)=C(N)Oc2n[nH]c(C)c21 (stereo unspecified) ?
LANA-H2A inh: 0.0; E coli growth: 0.68; FGF22 binding: inactive; ALR inh: 34; HNF4A DNA FP: 5.7; Beta2AR agonist: 1; UCH37 DUB inh: 5.6

Results for CCOC(=O)c1cc(=O)n2nc(-c3ccccc3F)nc2s1 ?
LANA-H2A inh: -0.5; E coli growth: 0.71; HNF4A DNA FP: -0.1; Beta2AR agonist: 5; UCH37 DUB inh: 1.7

What do the screens show for `Cc1ccsc1C(=O)OCC(=O)N(C)c1c(N)n(Cc2ccccc2)c(=O)[nH]c1=O`?
LANA-H2A inh: -1.9; FGF22 binding: inactive; ALR inh: -2; HNF4A DNA FP: 1.8; Beta2AR agonist: -4

What do the screens show for `O=C1CN(S(=O)(=O)c2cc(Br)ccc2Br)CCN1`?
LANA-H2A inh: -0.3; E coli growth: 0.69; FGF22 binding: inactive; ALR inh: -6; HNF4A DNA FP: 2.0; Beta2AR agonist: -2; UCH37 DUB inh: 3.5

How did O=C1NCCCC1C(=O)Nc1ccccc1C(F)(F)F (stereo unspecified) do in these assays?
LANA-H2A inh: 2.1; E coli growth: 0.66; ALR inh: 50; HNF4A DNA FP: 2.5; Beta2AR agonist: 2; UCH37 DUB inh: 2.1

Results for Nc1c(C(=O)c2ccccc2)sc2snc(SCC(=O)c3ccccc3)c12 ?
LANA-H2A inh: -4.0; E coli growth: 0.74; ALR inh: 21; HNF4A DNA FP: 16; Beta2AR agonist: -89; UCH37 DUB inh: 4.0

How did CCOC(=S)SCC(=O)N1CCc2cc(OC)c(OC)cc2C1C1C(=O)CC(C)(C)CC1=O (stereo unspecified) do in these assays?
LANA-H2A inh: -4.3; E coli growth: 0.69; ALR inh: 43; HNF4A DNA FP: 0.3; Beta2AR agonist: 3; UCH37 DUB inh: -2.6

What do the screens show for `CSc1ccccc1OCc1cc(C(=O)NCCCn2nc(C)cc2C)no1`?
LANA-H2A inh: -3.1; E coli growth: 0.72; FGF22 binding: inactive; ALR inh: -8; HNF4A DNA FP: 0.6; Beta2AR agonist: 3; UCH37 DUB inh: 1.9

Retrieved one by one from above, two records:
How did CN(CCC#N)c1ccc(/C=C(\C#N)c2ccccn2)cc1 do in these assays?
LANA-H2A inh: 1.5; E coli growth: 0.66; FGF22 binding: inactive; ALR inh: -17; HNF4A DNA FP: 1.1; Beta2AR agonist: -10; UCH37 DUB inh: 5.6

How did C=CCn1c(SCc2ccc3nonc3c2)nnc1-c1cccs1 do in these assays?
LANA-H2A inh: 6.8; E coli growth: 0.7; ALR inh: -2; HNF4A DNA FP: 5.2; Beta2AR agonist: -7; UCH37 DUB inh: 2.2

(next part)
Results for Nc1ccc2c(=O)[nH][nH]c(=O)c2c1 ?
E coli growth: 0.71; HNF4A DNA FP: -1.2; Beta2AR agonist: -1; UCH37 DUB inh: -2.9

Results for Cc1ccc2nc(SCc3ccc([N+](=O)[O-])cc3)[nH]c2c1 ?
LANA-H2A inh: -1.9; E coli growth: 0.71; ALR inh: -4; HNF4A DNA FP: -5.9; Beta2AR agonist: -7; UCH37 DUB inh: 4.8

Results for CCCC1(C(=O)O)NC(c2cccc(OC)c2O)C2C(=O)N(c3ccccc3)C(=O)C21 (stereo unspecified) ?
LANA-H2A inh: -6.4; E coli growth: 0.76; FGF22 binding: inactive; ALR inh: 59; HNF4A DNA FP: 0.2; Beta2AR agonist: 6; UCH37 DUB inh: 6.2

How did CCN(c1ccc(C(=O)CN2C(=O)NC3(CCOc4ccccc43)C2=O)cc1)S(C)(=O)=O (stereo unspecified) do in these assays?
LANA-H2A inh: -2.2; E coli growth: 0.7; FGF22 binding: inactive; HNF4A DNA FP: 8.3; Beta2AR agonist: 4; UCH37 DUB inh: 4.1

What do the screens show for `O=C(Cc1ccc(Cl)cc1)NCCN1CCCC1`?
LANA-H2A inh: 13; E coli growth: 0.66; ALR inh: 0; HNF4A DNA FP: -2.1; Beta2AR agonist: 16; UCH37 DUB inh: 5.2

How did O=C(Nc1cccc(S(=O)(=O)N2CCCCC2)c1)c1cc([N+](=O)[O-])ccc1N1CCOCC1 do in these assays?
LANA-H2A inh: -1.8; E coli growth: 0.7; FGF22 binding: inactive; ALR inh: -6; HNF4A DNA FP: 1.4; Beta2AR agonist: 1; UCH37 DUB inh: 4.6

Results for Cc1cc(NC(=O)c2ccc(F)cc2)n(-c2ccccc2)n1 ?
LANA-H2A inh: -1.7; E coli growth: 0.69; FGF22 binding: inactive; ALR inh: -3; HNF4A DNA FP: 3.3; Beta2AR agonist: -6; UCH37 DUB inh: 2.0

What do the screens show for `C/C(=N/Nc1ccnc2cc(Cl)ccc12)c1ccc(N)cc1`?
LANA-H2A inh: -3.2; FGF22 binding: inactive; ALR inh: 98*; HNF4A DNA FP: 1.8; Beta2AR agonist: -5

What do the screens show for `COc1ccc(S(=O)(=O)N2CCCCC2)cc1NC(=O)CNc1ccc(F)cc1C`?
LANA-H2A inh: 2.9; E coli growth: 0.74; FGF22 binding: inactive; ALR inh: -40; HNF4A DNA FP: 1.6; Beta2AR agonist: -4; UCH37 DUB inh: -2.2

Results for O=C(NC1CCCCCC1)c1ccc(=O)n(Cc2ccccc2)n1 ?
LANA-H2A inh: -0.2; E coli growth: 0.69; FGF22 binding: inactive; ALR inh: 0; HNF4A DNA FP: 3.1; Beta2AR agonist: -1; UCH37 DUB inh: 1.8

Results for CC1CCCCN1CCNC(=O)CN1C(=O)COc2ccccc21 (stereo unspecified) ?
LANA-H2A inh: 3.1; E coli growth: 0.7; ALR inh: -3; HNF4A DNA FP: -0.3; Beta2AR agonist: 0; UCH37 DUB inh: 2.5

How did O=C(CCCn1c(=S)[nH]c2ccccc2c1=O)N1CCCCC1 do in these assays?
LANA-H2A inh: 8.9; E coli growth: 0.73; ALR inh: 75; HNF4A DNA FP: 5.5; Beta2AR agonist: -14; UCH37 DUB inh: 4.1

What do the screens show for `COC(=O)C(C)Sc1nc2c(c(=O)n1-c1ccccc1)SCC2` (stereo unspecified)?
LANA-H2A inh: -3.7; E coli growth: 0.7; ALR inh: 7; HNF4A DNA FP: -3.5; Beta2AR agonist: 19; UCH37 DUB inh: 6.2

What do the screens show for `CCOc1ccc(CCNC(=O)c2cccnc2N2CCCC2)cc1OCC`?
LANA-H2A inh: -3.1; E coli growth: 0.76; ALR inh: -15; HNF4A DNA FP: -5.4; Beta2AR agonist: 17; UCH37 DUB inh: 4.0

What do the screens show for `O=C(O)Cn1c(=O)c2c3c(sc2n(Cc2ccc(Cl)cc2Cl)c1=O)CCCC3`?
LANA-H2A inh: 0.1; E coli growth: 0.69; FGF22 binding: inactive; ALR inh: 76*; HNF4A DNA FP: -2.0; Beta2AR agonist: -1; UCH37 DUB inh: 2.6

Results for COc1ccc(-c2cc(-c3ccccc3)nc(-c3ccc4c(c3)NC(=O)CO4)c2)cc1 ?
LANA-H2A inh: 1.2; E coli growth: 0.74; ALR inh: 1; HNF4A DNA FP: 0.9; Beta2AR agonist: -12; UCH37 DUB inh: 1.1

What do the screens show for `O=C(c1ccc(S(=O)(=O)c2ccc(Cl)cc2)cc1)N1CCOCC1`?
LANA-H2A inh: 0.0; E coli growth: 0.67; FGF22 binding: inactive; ALR inh: -14; HNF4A DNA FP: 2.7; Beta2AR agonist: 2; UCH37 DUB inh: 6.2

Results for CCn1cc(S(=O)(=O)N2CCCC2)cn1 ?
LANA-H2A inh: 2.1; E coli growth: 0.67; FGF22 binding: inactive; ALR inh: -14; HNF4A DNA FP: -1.4; Beta2AR agonist: -5; UCH37 DUB inh: -0.4

How did COC(=O)c1cc(Cl)c(NC(=O)c2ccc(F)cc2)cc1OC do in these assays?
LANA-H2A inh: -3.0; E coli growth: 0.67; FGF22 binding: inactive; ALR inh: -1; HNF4A DNA FP: -0.5; Beta2AR agonist: 4; UCH37 DUB inh: -6.9

What do the screens show for `O=C(CCn1c(=O)c2ccccc2n(Cc2cc(=O)n3ccccc3n2)c1=O)NCc1ccco1`?
LANA-H2A inh: 1.7; ALR inh: -5; HNF4A DNA FP: -0.5; Beta2AR agonist: -5; UCH37 DUB inh: -5.3
